gsp antagonist: gsp mutant antagonism | Potency, µM (series often up to 76.9 µM), for inactives: at the top dose activity change, negative = inhibition, usual class: inhibitors | gsp-mutant cells, cAMP HTRF, 30 min; control for the full effect not named in the record | AID 624288 | 340,000 compounds, 0.4% hits; active = falling curve of any shape with a large fitted effect; inconclusive = falling curve, mostly with a smaller effect; inactive = flat or rising curve; cell line not stated here;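 note: intracellular cAMP measured with PDE inhibitor Ro 20-1724 present during compound exposure; potency is the fitted concentration of half-maximal effect; % is set by controls: 0 for no effect and ±100 for the full control effect; nearly all actives have a fitted effect of over 65% in size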
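HTRF cAMP read-out (cAMP-d2 plus anti-cAMP antibody-K in lysis buffer, 30 min RT). Before lysis, cells are exposed to compounds with […] for 30 min at 37C in DPBS containing Ca/Mg, BSA and Tween 20.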
D2 potentiator: positive allosteric modulators of human D2 dopamine receptor | AID 624464 | P14416 | 360,000 compounds, 0.23% hits | potentiation, % (no concentration beside the values) | DiscoveRx D2 beta-arrestin cells, luminescence, 90 min; 100% = 57 uM dopamine signal; active = potentiation of 50% or more; inconclusive = 30% to 50%; inactive = 30% or less;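 note: compound concentration not given in the record; tested on top of an EC20 dose of dopamine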
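PathHunter D2 cells, attached overnight at 37 deg C, received compound in DMSO plus dopamine at EC20 (50 nM final) for 90 min at 37 deg C. Beta-arrestin recruitment was read as luminescence after 1 h with detection reagent at ambient temperature.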
D2 agonist: human D2 receptor agonism in beta-arrestin assay. DiscoveRx PathHunter D2 beta-arrestin, luminescence, 90 min; 100% = 57 uM dopamine signal. activation, % (concentration not given with the values). AID 624465. 360,000 compounds, 0.084% hits; in the data active = activation above about 40%; inconclusive = about 15% to 40%; inactive = below about 15%; note: the text of the record calls up to 30% inactive
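DiscoveRx PathHunter D2 beta-arrestin cells (2,100/well) attached overnight, then compound-stimulated 90 min at 37 C in HBSS/10 mM HEPES/0.1% Tween-20 buffer; beta-galactosidase complementation read by luminescence after 1 h at ambient temperature. Dopamine 57 uM final (EC100) as control.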
Six1-Eya2 inh: inhibitors of human Six1/Eya2 interaction | AlphaScreen GST-Six1/His-Eya2 binding, biochemical; hits give low values; control for the full effect not named in the record | 360,000 compounds, 0.56% hits | Q15475+O00167 | activity change, % (no concentration beside the values); in the data active = activity change below about -65%; inconclusive = about -30% to -65%; inactive = above about -30%; note: % is set by controls: 0 for no effect and ±100 for the full control effect
Target sequence (O00167 whole entry, looked up): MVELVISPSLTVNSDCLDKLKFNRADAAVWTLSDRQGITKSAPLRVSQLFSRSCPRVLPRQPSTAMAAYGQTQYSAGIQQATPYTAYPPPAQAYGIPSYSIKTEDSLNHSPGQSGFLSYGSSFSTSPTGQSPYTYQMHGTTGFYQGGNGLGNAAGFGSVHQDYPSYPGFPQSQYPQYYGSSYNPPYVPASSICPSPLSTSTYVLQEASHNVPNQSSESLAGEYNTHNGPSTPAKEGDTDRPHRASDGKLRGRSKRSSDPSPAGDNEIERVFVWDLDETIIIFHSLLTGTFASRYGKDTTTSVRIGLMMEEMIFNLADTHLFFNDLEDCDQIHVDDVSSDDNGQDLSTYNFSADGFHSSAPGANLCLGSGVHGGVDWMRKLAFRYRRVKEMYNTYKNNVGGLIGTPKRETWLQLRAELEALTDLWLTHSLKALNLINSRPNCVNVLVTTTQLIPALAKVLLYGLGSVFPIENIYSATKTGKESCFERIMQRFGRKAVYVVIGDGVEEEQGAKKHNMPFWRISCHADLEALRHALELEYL
Target sequence (Q15475 whole entry, looked up): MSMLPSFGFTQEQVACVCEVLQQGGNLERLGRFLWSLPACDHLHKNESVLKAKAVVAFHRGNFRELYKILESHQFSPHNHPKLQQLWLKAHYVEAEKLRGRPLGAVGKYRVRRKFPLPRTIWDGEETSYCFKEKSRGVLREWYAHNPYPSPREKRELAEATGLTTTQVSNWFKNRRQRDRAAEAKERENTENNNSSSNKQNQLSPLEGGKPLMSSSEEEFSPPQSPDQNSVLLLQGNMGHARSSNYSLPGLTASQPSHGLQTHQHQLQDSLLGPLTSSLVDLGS
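GST-Six1 + His-Eya2 (5X stock: 250/500 nM); Tris pH 8.0, 300 mM NaCl, 0.05% BSA, 0.02% Tween 20; GSH donor/Ni acceptor beads; 1 h 37 °C dark; AlphaScreen readout.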
CtBP-E1A inh: inhibitors of CtBP/E1A interaction; AlphaScreen GST-E1A/His-CtBP binding, 1536-well; hits give low values; control for the full effect not named in the record; activity change, % (concentration not given with the values); 340,000 compounds, 0.49% hits; in the data active means activity change below about -65%; inconclusive means about -30% to -65%; inactive means above about -30%; note: % is set by controls: 0 for no effect and ±100 for the full control effect
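Protein mix (5X: 125 nM each GST-E1A, His-CtBP) was incubated with pinned compound 2 h at 37 deg C in dark, in 50 mM Tris pH 8.0 buffer with 300 mM NaCl. Glutathione donor and nickel acceptor beads followed; AlphaScreen signal read after 1 h.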
gsp agonist: agonists of gsp mutant (McCune-Albright syndrome) | gsp mutant cells, cAMP HTRF, 30 min; control for the full effect not named in the record | Potency, µM (series often up to 76.9 µM), inactives show at the highest dose activation (cAMP increase), most hits filed as activators | 340,000 compounds, 0.13% hits; active = well fitted activation curve with a large enough effect; inconclusive = small, poorly fitted or top-dose-only effect, or another doubt; inactive = no such curve, though single readings can be large or run the other way; cell line not stated here;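 note: phosphodiesterase inhibitor Ro 20-1724 added with compounds to block cAMP breakdown; potency is the fitted concentration of half-maximal effect; nearly all actives have a fitted effect of over 60% in size; about a fifth of the inactives were tested at one dose only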
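Cells in DMEM/10% FBS with G418 were pretreated with compounds in DMSO plus […] (300 uM stock) for 30 min at 37C. cAMP was measured by HTRF (cAMP-d2 plus anti-cAMP antibody-K) after 30 min at room temperature.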
* hit, by the source's call; ? = inconclusive; nt = no result given; [ ] = another dose, or the depositor's remark. Outcome played no part in choosing rows, and some 1.4% of all compounds hit somewhere here.

cpd | Compound | D2 agonist | gsp agonist | CtBP-E1A inh
1 | CCCCOC(=O)NC1CCS(=O)(=O)C1 (stereo not given) | -1.5 | -1% | -13
2 | CCCc1cc(C(=O)Nc2sc(C(C)=O)c(C)c2C(=O)OCC)no1 | -2.0 | ? | -1
3 | CC(=O)c1cc(C)ccc1OC(=O)c1ccco1 | -0.9 | -42% | 51
4 | COc1ccc(C(=O)COC(=O)CCS(=O)(=O)c2ccc(C)cc2)c(OC)c1 | 2.3 | 8% | -5
5 | CCC1CCCCN1CCCNC(=O)c1ccc(N2CCOCC2)c(NS(=O)(=O)c2ccc(OC)cc2)c1 (stereo not given) | -4.7 | 9% | 8
6 | CN1CCN(C(=O)C2=C[C@H](c3ccc(C(F)(F)F)cc3)C[C@H](OCc3ccc(CO)cc3)O2)CC1 | -1.6 | nt | 6
7 | CCOC(=O)c1cc(S(=O)(=O)NCCc2ccccc2)cn1C | -1.4 | 28% | -17
8 | Cc1cc(C(=O)N/N=C/c2ccccc2)c(C)o1 | -3.4 | 10% | 0
9 | COc1ccc(NS(=O)(=O)c2cccc3nonc23)c(OC)c1 | -4.1 | -29% | -3
10 | CCC(C)C(=O)Nc1nnc(SCC(=O)N2C(C)CCCC2C)s1 (stereo not given) | -3.2 | 4%[15.4 µM] | 8
11 | Cn1c(=O)c2ccccc2n2c(=S)[nH]nc12 | -2.8 | 5%[15.4 µM] | -11
12 | O=[N+]([O-])c1ccc2nc(NS(=O)(=O)c3ccc(F)cc3)sc2c1 | -8.0 | -5% | -22

cpd | Six1-Eya2 inh | D2 potentiator | gsp antagonist
1 | 3 | -5 | 3%
2 | 0 | -4 | 5%
3 | 24 | 0 | 2%
4 | -8 | 15 | -15%
5 | 1 | -12 | -1%
6 | -3 | -23 | -4%
7 | 2 | -4 | 6%
8 | -6 | -12 | -3%
9 | -11 | -2 | -16%
10 | 0 | 3 | 0%
11 | -26 | -7 | -28%
12 | -6 | -6 | -1%

Following part.
cpd | Compound | D2 agonist | gsp agonist | CtBP-E1A inh
13 | O=C(/C=C/c1ccc(Cl)cc1)NCCN1CCOCC1 | -2.2 | ? | 12
14 | COc1ccc(-c2[nH]c(-c3ccc(SC)cc3)nc2SCC(=O)Nc2nccs2)cc1 | -0.7 | 2% | -15
15 | Cc1n[nH]c(C)c1S(=O)(=O)N1CCN(c2ccccn2)CC1 | -1.9 | ? | -6
16 | CC(C)(C)CC(C)(C)NC(=O)c1ccc2snnc2c1 | -1.5 | 2%[15.4 µM] | -2
17 | COc1ccc(N(C)S(=O)(=O)c2ccc(C)cc2)c([N+](=O)[O-])c1 | 0.0 | -1%[15.4 µM] | -4
18 | CC1CCC(=NO)C(=NO)C1 (stereo not given) | -1.4 | 2%[15.4 µM] | -2
19 | COc1ccc(/C=c2/sc3nc(-c4ccccc4)c(-c4ccccc4)n3c2=O)cc1 | -1.8 | -18% | -8
20 | CCN(CC)CCNC(=O)CCc1nnc2ccc(N3CCC(C)CC3)nn12 | -4.2 | 5% | nt
21 | Cc1cc(Cn2nc(-c3ccccc3)cc2C(=O)NCC2CC2)on1 | -3.5 | -26% | -12
22 | Cc1cc(F)ccc1NC(=O)c1cc(S(=O)(=O)N2CCc3ccccc32)cn1C | 0.1 | ? | -7
23 | Cc1ccc(NC(=O)CSc2nnc(-c3cc(C)[nH]n3)n2N)cc1 | 3.4 | 5% | 0
24 | COCCOC(=O)c1c(C)n(C)c2ccc(OC(=O)C3CC3)cc12 | -4.1 | ? | -2

cpd | Six1-Eya2 inh | D2 potentiator | gsp antagonist
13 | -1 | -15 | 15%
14 | -19 | -25 | ?
15 | 0 | 5 | 3%
16 | 4 | -4 | -8%
17 | -8 | -8 | -7%
18 | -10 | -5 | 9%
19 | -2 | -18 | 15%
20 | 1 | -13 | 5%
21 | 12 | -14 | -23%
22 | 3 | -2 | -17%
23 | -2 | -10 | 13%
24 | -1 | -15 | -3%

Later entries:
cpd | Compound | D2 agonist | gsp agonist | CtBP-E1A inh
25 | O=C(OCC(=O)N1CCCCC1)c1c[nH]c(=O)[nH]c1=O | -0.8 | -11% | 3
26 | CCOC(=O)C1=CCC(c2ccc(F)cc2)N(S(=O)(=O)c2ccc(C)cc2)C1 (stereo not given) | -5.3 | nt | 14
27 | O=C(O/N=C(/c1ccccc1)c1ccncc1)c1ccc(F)cc1 | 0.1 | 0% | -19
28 | CCC1CN2CCc3cc(OC)c(OC)cc3C2CC1CC1c2cc(OC)c(OC)cc2CCN1C(=O)C(Cc1c[nH]c2ccccc12)NC(=O)OC(C)(C)C (stereo not given) | -1.3 | -32%[inhibitor] | 0
29 | CCCn1c(C)cc(C(=O)CN2C(=O)c3ccccc3C2=O)c1C | -3.6 | ? | -3
30 | C/C=C(/C)C(=O)O[C@@H]1[C@H](OC(C)=O)c2c(ccc3ccc(=O)oc23)OC1(C)C | -4.1 | 1% | 0
31 | COc1ccccc1CNC(=S)NCc1ccc(F)cc1 | -4.3 | ? | ?
32 | O=C(NCCOc1ccccc1Cl)C(=O)c1c[nH]c2ccccc12 | -6.9 | -4%[15.4 µM] | -2
33 | Cc1cccc(NC(=O)N2CCCC(CNC(=O)c3ccccc3Cl)C2)c1C (stereo not given) | 4.1 | -14% | 7
34 | CCc1cccc(NC(=O)Cn2c(-c3ccccc3)cc(C(C)=O)c2C)c1 | -2.6 | -47%[inhibitor] | -2
35 | Cn1c(=O)c2c(nc(NC(Cc3ccccc3)C(=O)O)n2Cc2ccccc2)n(C)c1=O (stereo not given) | -2.5 | ? | 0
36 | Cc1ccc(C(=O)Nc2ncc(Cc3ccc(F)cc3)s2)o1 | 0.1 | -27% | -9

cpd | Six1-Eya2 inh | D2 potentiator | gsp antagonist
25 | 7 | -1 | -5%
26 | 9 | -7 | nt
27 | 3 | 10 | 5%
28 | -21 | -25 | -13%
29 | -8 | 6 | -33%
30 | 0 | -14 | 12%
31 | -2 | -27 | 1%
32 | -1 | -1 | -19%
33 | 5 | -6 | 8%
34 | 3 | 18 | 6%
35 | -11 | 0 | -5%
36 | -6 | 1 | -4%

The results go on:
cpd | Compound | D2 agonist | gsp agonist | CtBP-E1A inh
37 | COc1ccc(CCNc2nnc(C)c(=O)[nH]2)cc1OC | 2.0 | 6% | 3
38 | Cc1nc(SCC(=O)Nc2ccc3c(c2)OCO3)c(C#N)c2c1CCCC2 | 0.7 | 4% | 3
39 | C=CCn1c(C(O)c2ccccc2)nc2ccccc21 (stereo not given) | -0.3 | 1%[15.4 µM] | 9
40 | CC(NC(=O)C1CCN(S(=O)(=O)c2cccc3cccnc23)CC1)c1ccccc1 (stereo not given) | -0.5 | ? | -22
41 | CN1C2CCC1CC(NC(=O)c1ccc([N+](=O)[O-])cc1)C2 (stereo not given) | -1.6 | ? | 0
42 | O=C(CC(c1ccccc1)c1ccccc1O)NCCN1CCOCC1 (stereo not given) | -0.1 | -14% | 0
43 | Cc1ccc(-n2c(SCC(=O)OC(C)C)nnc2-c2ccco2)cc1 | -3.3 | 12% | -1
44 | O=S(=O)(Nc1cccc(-c2cn3c(n2)SCC3)c1)c1ccccc1 | -0.4 | -40%[inhibitor] | -12
45 | CCOC(=O)C(/C(C)=N/NC(=O)c1ccccc1[N+](=O)[O-])C(C)C (stereo not given) | 0.6 | 3% | -25
46 | Cc1ccc(C(=O)N/C(=C\c2cn(S(=O)(=O)N(C)C)c3ccccc23)C(=O)NCCCn2ccnc2)cc1 | -2.0 | -73%[inhibitor] | -16
47 | Cc1ccccc1S(=O)(=O)Cc1ccc(C(=O)NC2CCCCC2)o1 | -8.7 | -3% | 7
48 | Cc1nn(C(C)C(=O)NCCCc2ccccc2)c(=O)c2cc3occc3n12 (stereo not given) | -4.1 | ? | 21

cpd | Six1-Eya2 inh | D2 potentiator | gsp antagonist
37 | 2 | 8 | 0%
38 | 5 | 8 | ?
39 | -15 | -7 | -9%
40 | 1 | -1 | -4%
41 | 10 | 2 | 17%
42 | 0 | -15 | 30%
43 | -1 | 9 | -20%
44 | -26 | -2 | -7%
45 | 0 | -12 | 8%
46 | -14 | -22 | -14%
47 | 5 | -4 | -1%
48 | 14 | 20 | 3%

Continuation.
cpd | Compound | D2 agonist | gsp agonist | CtBP-E1A inh
49 | O=C(Nc1ccc(C(=O)NCCCN2CCN(c3ccccc3)CC2)cc1)C1=CSCCO1 | 44* | 7% | -26
50 | Cn1c(CNc2ccc(F)cc2)nc2ccccc21 | 0.1 | -15% | -3
51 | COC(=O)c1ccccc1NC(=O)CSc1nnc(-c2ccncc2)o1 | -0.7 | 26% | 6
52 | C=CCS(=O)(=O)N1CCCC(Cc2ccccc2C)(C(=O)OCC)C1 (stereo not given) | -2.8 | -12% | nt
53 | COc1cccc(CC(=O)Nc2nccs2)c1 | -0.4 | 7% | 2
54 | COc1ccc(NC(=O)c2c(NC(=O)CCC(=O)O)sc(-c3ccccc3)c2C)cc1 | 1.2 | -5% | nt
55 | CCOc1ccccc1N1CC(C(=O)Nc2cc(S(=O)(=O)N3CCOCC3)ccc2OC(C)C)CC1=O (stereo not given) | 3.7 | -39%[inhibitor] | 3
56 | O=C(O)C1C2CCCCC2=C2CCCCC2C1C(=O)O (stereo not given) | -0.5 | -40% | 2

cpd | Six1-Eya2 inh | D2 potentiator | gsp antagonist
49 | -13 | -19 | -11%
50 | -3 | -8 | 1%
51 | 1 | 6 | -5%
52 | 5 | 1 | -4%
53 | 3 | -9 | -7%
54 | -1 | -5 | ?
55 | -3 | 5 | -6%
56 | 0 | 1 | 2%

Bioassay records: PubChem, National Center for Advancing Translational Sciences (NCATS)
